# Assay outcomes from PubChem.
# CBX7 inh = CBX7 chromodomain binding inhibitors, primary screen, biochemical, AlphaScreen. Chromobox protein homolog 7 (Homo sapiens), O95931. AlphaScreen His6-CBX7 / biotin-H3K27me3 peptide binding; active compounds read low. normalised signal (fraction of DMSO) (no concentration beside the values). 66,000 compounds, 1.1% hits. AID 1224903, 2016; in the data active means normalised signal below about 0.5;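 further: 100 nL library stock added to about 20 µL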
# Target sequence (O95931 whole entry, looked up): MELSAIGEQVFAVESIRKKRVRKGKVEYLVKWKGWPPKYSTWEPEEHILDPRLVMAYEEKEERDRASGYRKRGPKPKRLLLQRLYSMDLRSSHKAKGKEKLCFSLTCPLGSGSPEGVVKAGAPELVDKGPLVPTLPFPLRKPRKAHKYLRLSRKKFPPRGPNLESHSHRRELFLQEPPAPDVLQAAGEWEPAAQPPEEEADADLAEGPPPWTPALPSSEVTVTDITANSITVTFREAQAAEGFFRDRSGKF
# CBX7 inh z-score = recorded beside CBX7 inh, whose call it bears; z-score; measured here: z-score of CBX7 signal; some inactives read as strong as hits; reference of the scale not given here;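 same signal on another scale; lower means less binding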
# * = called active by the depositor.
SMILES,CBX7 inh,CBX7 inh z-score
COc1ccc2nc(NC(=O)c3c(-c4ccccc4)noc3C)sc2c1,1,0.62
O=C(Nc1nnc(CCc2ccccc2)s1)c1cccc(Cl)c1,1,1.1
Cc1ccc(Nc2ncc(C(=O)O)c3ccccc23)cc1Cl,0.97,-0.072
Cc1ccn2c(Nc3ccc4c(c3)OCO4)c(-c3ccccc3)nc2c1,0.8,-3.3
COc1ccc(NC(=O)Cc2ccc(NC3=NC4CS(=O)(=O)CC4S3)cc2)cc1 (stereo not drawn),0.84,-1.8
CC(C)COc1ccc(C(=O)N(Cc2ccc(C(C)C)cc2)C2CCS(=O)(=O)C2)cc1 (stereo not drawn),1.1,0.65
Cc1ccc2nc(Nc3ccccn3)nc(-c3ccccc3)c2c1,1.1,2.4
O=C1CCc2cc(S(=O)(=O)NC(C(=O)Nc3ccccn3)c3ccccc3)ccc2N1 (stereo not drawn),0.92,-0.54
CCOc1ccc(C2Nc3ccccc3NC3=C2C(=O)CC(c2ccc(OC)cc2)C3)cc1OC (stereo not drawn),1,0.22
CCOc1ccc(-n2c(-c3ccc(OC)cc3)cc3c2CC(C)(C)CC3=O)cc1,0.4*,-11*
Cc1c(C(=O)Nc2ccccc2C(F)(F)F)sc2ncn(CC(=O)N3CCC(C)CC3)c(=O)c12,1,0.0015
CCN1C(=O)c2ccccc2S(=O)(=O)c2ccc(C(=O)NC3CCCC3)cc21,1,1.2
COc1cccc(-c2nc(C(=O)NCc3ccccc3)c(C)o2)c1,0.92,-0.97
CCOc1ccccc1N(C)C(=O)CCc1nc(-c2ccc(C)cc2)no1,1.2,2
CCCCOC(=O)c1ccc(NC(=O)c2c(-c3ccccc3Cl)noc2C)cc1,0.94,-0.14
Cc1ccc(-n2nc(C)c3c(C)c(CCC(=O)NC(C)c4cccs4)c(C)nc32)cc1 (stereo not drawn),0.9,-0.79
Cc1ccc(C2=NN(CCC(=O)NCCc3ccc(Cl)cc3)C(=O)CC2)cc1,0.95,-0.74
COc1ccc2c(c1)CCc1c(C(=O)Nc3c(C)nn(Cc4c(Cl)cccc4Cl)c3C)noc1-2,0.98,-0.49
COc1cccc(C(=O)Nc2nnc(-c3ccncc3)s2)c1,1.2,0.7
COc1ccc(NC(=O)CSc2nc3ccc(N)cc3s2)cc1,0.91,-1.6
C=CCc1c(C)nc2nc(SCC(=O)NCc3ccccc3)nn2c1C,1.2,0.63
CCn1c(C(=O)N2CCC(C(=O)N3CCCC3)CC2)cc2sccc21,1,0.023
N=c1n(CCN2CCCCC2)c2ccccc2n1CC(O)COc1ccc(Cl)cc1Cl (stereo not drawn),0.92,-0.51
Cc1onc(-c2ccccc2Cl)c1C(=O)Nc1cccc2nonc12,1.1,1.7
Cc1sc2ncn(CC(=O)NCCCC(=O)N3CCC(Cc4ccccc4)CC3)c(=O)c2c1C,1.2,4.1

# Compound profiles, from the list above:
# `COc1ccc(NC(=O)CSc2nc3ccc(N)cc3s2)cc1` is listed as CBX7 inh: 0.91; CBX7 inh z-score: -1.6
# `CCOc1ccc(-n2c(-c3ccc(OC)cc3)cc3c2CC(C)(C)CC3=O)cc1` is listed as CBX7 inh: 0.4*; CBX7 inh z-score: -11*
# `CCOc1ccccc1N(C)C(=O)CCc1nc(-c2ccc(C)cc2)no1` is listed as CBX7 inh: 1.2; CBX7 inh z-score: 2

# The main list resumes with the 3 entries that preceded the break.
SMILES,CBX7 inh,CBX7 inh z-score
N=c1n(CCN2CCCCC2)c2ccccc2n1CC(O)COc1ccc(Cl)cc1Cl (stereo not drawn),0.92,-0.51
Cc1onc(-c2ccccc2Cl)c1C(=O)Nc1cccc2nonc12,1.1,1.7
Cc1sc2ncn(CC(=O)NCCCC(=O)N3CCC(Cc4ccccc4)CC3)c(=O)c2c1C,1.2,4.1
COc1ccccc1CNC(=O)c1ccc2c(c1)N(Cc1ccccc1)C(=O)c1ccccc1S2,0.96,-1.7
Cc1ccc2c(c1)NC(=O)C(CC(=O)NCCN1CCN(c3cccc(C)c3C)CC1)O2 (stereo not drawn),0.98,-0.66
Cc1ccc(Cl)cc1N1CCN(CCNC(=O)Nc2ccccc2C(F)(F)F)CC1,0.97,-0.042
COc1ccc(NC(=O)c2oc3ccc(S(=O)(=O)N4CCOCC4)cc3c2C)cc1,0.99,-0.19
CCCc1ccc(OCc2nc(-c3ccc(NC(=O)c4cccs4)cc3)no2)cc1,1.2,2.7
COc1ccc(OCc2nc(C#N)c(NCc3ccccc3Cl)o2)cc1,0.77,-3
COc1ccccc1N1CCN(C(c2cccs2)C(C)NC(=O)C(=O)NCCN(C)C)CC1 (stereo not drawn),0.98,-0.49
O=C(Cn1ccc2ccccc2c1=O)NCC(=O)N1CCOCC1,0.96,-0.33
O=C(CC1Sc2ccc(C(F)(F)F)cc2NC1=O)Nc1ccc(Br)cc1 (stereo not drawn),1,-0.09
Cn1nnnc1SCc1cn2cccnc2n1,0.85,-1.8
CCC(=O)N1CCc2cc(S(=O)(=O)NC(Cc3ccccc3)C(=O)Nc3ccc(C)cc3)ccc21 (stereo not drawn),1.1,1.1
COCCCNC(=O)c1ccc2c(c1)N(C)C(=O)c1ccccc1S2,0.79,-2.7
Cc1cc(Oc2ccccc2F)nc(NCc2ccccc2)n1,1.1,1.4
Cc1ccc(C)c(Nc2nnc(-c3ccc(C)c(S(=O)(=O)NCCO)c3)c3ccccc23)c1,0.67,-6.2
CCOC(=O)c1sc2nc(C)nc(N3CCN(c4ccccc4F)CC3)c2c1C,1.1,1.1
CCOc1ccc(C(=O)N(Cc2ccc(CC)cc2)C2CCS(=O)(=O)C2)cc1 (stereo not drawn),0.92,-0.084
CCC1Oc2ccccc2N(CC(=O)NC2CC2)C1=O (stereo not drawn),0.94,-0.66
O=C(NCc1ccccc1)C1(S(=O)(=O)c2ccc(Cl)cc2)CC1,1,0.7
Cc1cc(C)c(NC(=O)Cn2nnc(-c3ccccc3Cl)n2)c(C)c1,1,-0.099
CCOC(=O)c1cc(-c2ccccc2)n(CCC(=O)Nc2cc(OC)cc(OC)c2)c1C,1,0.38
CCc1cccc(C)c1NC(=O)CC1Oc2ccccc2NC1=O (stereo not drawn),1.3,1.5
COc1ccc(-c2noc(CCC(=O)Nc3cc(C)ccc3OC)n2)cc1,1,0.84
COc1ccc(-n2nnc3c(=O)n(CC(=O)Nc4ccccc4OC)cnc32)cc1,1.1,1
O=C(Nc1cccc(-c2nc3ccccc3[nH]2)c1)c1ccccc1F,1.2,0.66
CCS(=O)(=O)c1ccc(O)c(NC(=O)COc2ccc(Br)cc2)c1,1.1,2.6
# The list continues.
SMILES,CBX7 inh,CBX7 inh z-score
Cc1ccc2c(c1)NC(=O)C(CC(=O)Nc1ccc(C)c(C)c1)O2 (stereo not drawn),1,0.98
CCCCN(CC)C(=O)Cc1c(C(=O)O)[nH]c2ccc(Cl)cc12,1,1.1
O=C(O)c1cccc(NS(=O)(=O)c2ccc(Cl)cc2)c1,1.2,2.7
CNC(=O)c1c[nH]c2ccc(S(=O)(=O)Nc3ccccc3C)cc2c1=O,1,0.91
CC1CCC(NC(=O)CSCc2cnn(-c3ccccc3)c2-n2cccc2)CC1 (stereo not drawn),1,0.75
CCC1Oc2ccc(C)cc2N(CC(=O)N2CCN(c3cc(Cl)ccc3C)CC2)C1=O (stereo not drawn),0.99,-0.54
O=C(Nc1ccccc1Cl)c1cnc2sccn2c1=O,0.85,-1.8
CC(=O)Nc1ccc(NC(=O)CC2Oc3ccc(C)cc3NC2=O)cc1 (stereo not drawn),0.99,-0.5
CN(C)C(=O)c1ccc(Nc2nnc(-c3ccc(O)cc3)c3ccccc23)cc1,0.88,-1.3
COc1ccc(NC(=O)c2cc3c(n(-c4ccc(OC)cc4)c2=O)CC(C)(C)CC3=O)cc1,1,-0.0075
COc1cccc(-c2nn(C)c3sc(C(=O)NCCCN4CC(C)CC(C)C4)cc23)c1 (stereo not drawn),0.98,-0.57
COc1cccc(NC(=O)Cn2cc(S(=O)(=O)c3ccc(C)cc3)c(=O)c3cc(C)ccc32)c1,0.84,-2.3
Cc1ccc(-c2nnc(Nc3ccc(C(N)=O)cc3)c3ccccc23)cc1S(=O)(=O)NCC1CCCO1 (stereo not drawn),0.75,-2.8
O=C(CSc1nnc(-c2cccc(F)c2)n1-c1ccccc1)NCc1ccccc1,1.1,1
CCOc1cc([N+](=O)[O-])cc2c1C(=O)Nc1ccccc1O2,0.88,-1.2
COc1ccccc1-c1cc2nc(C)c(CCC(=O)Nc3ccc(CN4CCOCC4)cc3)c(C)n2n1,0.99,-0.32
COc1ccc(Nc2ncnc3sc(C)c(S(=O)(=O)N4CCC(C)CC4)c23)cc1OC,1,1.1
COc1ccc(-c2cc(-c3ccc(C(C)C)cc3)c(C#N)c(N)n2)cc1,0.9,-1.5
CC1CCN(c2c(NCc3ccc(C(=O)NCCCN(C)Cc4ccccc4)cc3)c(=O)c2=O)CC1,0.97,-0.48
NC(=O)C1CCCN(c2nc(-c3ccccc3)cs2)C1 (stereo not drawn),1.1,4
COc1ccc(NC(=O)c2ccc3c(=O)n4c(nc3c2)CCCCC4)cc1,0.83,-2.7
O=C(NCCCN1CCN(c2cccc(Cl)c2)CC1)C1(S(=O)(=O)c2ccc(Cl)cc2)CC1,0.97,-1.4
Cc1ccc(-c2nc(CS(=O)(=O)CC(=O)N3CCc4ccccc43)c(C)o2)cc1,0.99,-0.0088
COc1ccc(-n2nc(C(=O)Nc3cccc(Cl)c3)c3ccccc3c2=O)c(OC)c1,1.1,1.9
CC(=O)C1C(c2cccc(F)c2)c2c(noc2C)CC1(C)O (stereo not drawn),1.1,2.1
# (further entries)
SMILES,CBX7 inh,CBX7 inh z-score
COc1cc(NS(=O)(=O)c2ccc(NC(=O)c3c(OC)cccc3OC)cc2)nc(OC)n1,1.1,0.66
COCc1cc(C)c2c(n1)sc1c(-c3ccccc3)onc12,1.1,1.7
CCC(C)NC(=O)Cn1nc(-c2ccccc2)c2cc(Cl)ccc21 (stereo not drawn),1,0.77
Cc1cc(C)nc(NS(=O)(=O)c2ccc(NC(=O)c3cccc(Oc4ccccc4)c3)cc2)n1,1.1,0.67
O=C(CCCn1c(=O)c2sccc2n(Cc2ccccc2F)c1=O)NCc1ccccc1,0.93,-1.6
O=C(Nc1nnc(-c2ccncc2)s1)c1ccco1,1,0.22
CC(=O)c1cccc(Nc2ncnc3ccccc23)c1,1.1,2.2
CCOc1ccc(-c2nc(CSCC(=O)NCCCN3CCOCC3)c(C)o2)cc1,1.1,1.6
Cc1c(C(=O)N2CCN(c3ccccc3F)CC2)sc2ncnc(N(C)c3ccccc3)c12,1,1.5
Cc1ccc(N(CC(=O)Nc2ccc(Br)cc2C)S(=O)(=O)c2c(C)noc2C)cc1,0.97,-0.27
Cc1ccc(-c2nc(NC(=O)c3cccc4ccccc34)sc2-c2ccccc2)cc1,1,0.56
COc1ccc(NC(=O)Cn2c(=O)n(-c3ccc(F)cc3)c(=O)c3sccc32)cc1,1.1,2.1
CCN1CCN(CCCNC(=O)c2ccc3c(c2)N(Cc2ccccc2)CCS3)CC1,1,0.034
Cc1onc(-c2c(Cl)cccc2Cl)c1C(=O)Nc1ccc(F)c(F)c1,1.1,0.92
CNc1ccc(Br)cc1C(O)c1ccccc1 (stereo not drawn),0.98,-0.55
COc1ccc(CN2C(=O)c3ccccc3C2C(=O)NC2CCC(C)CC2)c(OC)c1 (stereo not drawn),0.9,-0.34
COc1ccc(-c2nc(C#N)c(N3CC(C)CC(C)C3)o2)cc1 (stereo not drawn),0.92,-1.2
N#Cc1ccc(NC(=O)COCc2cc(-c3ccc(F)cc3)on2)cc1,1.1,0.7
COC(=O)c1c(NC(=O)COc2ccc(C)c(C)c2)sc2c1CCCC2,0.97,-0.072
CCCC1c2ccc(C)n2CCN1C(=O)Nc1ccccc1C(F)(F)F (stereo not drawn),0.99,-0.4
COc1ccc(Nc2nnc(Cc3cccnc3)c3ccccc23)cc1Cl,0.96,-0.79
CCc1nnc(NC(=O)COc2cc(C)c(Cl)c(C)c2)s1,1,0.28
Cc1ccc(-n2nc3c(c2NC(=O)c2ccc(F)cc2)CS(=O)(=O)C3)cc1,1.2,1
O=C(c1ccc(CNc2c(N3CCCCC3)c(=O)c2=O)cc1)N1CCOCC1,1.4,0.85
CCC(C)(C)C1CCc2oc3ccc(NS(=O)(=O)c4cccs4)cc3c2C1 (stereo not drawn),0.42*,-1.6*
O=C(C1CCCN(Cc2ccccc2)C1)N1CCCCC1 (stereo not drawn),1,0.24
CCOC(=O)c1c(NC(=O)COc2cccc(Cl)c2)sc2c1CCC(C)C2 (stereo not drawn),1.1,3.9
Cc1cc(C)cc(OC(C)C(=O)N(Cc2ccc(Cl)cc2)C2CCS(=O)(=O)C2)c1 (stereo not drawn),0.98,-0.28
CCC(=O)N1c2ccc(S(=O)(=O)CCC(=O)Nc3nccs3)cc2CC1C (stereo not drawn),1.1,3.8

# Laid out differently: entries from further up.
Molecule	CBX7 inh	CBX7 inh z-score
COCc1cc(C)c2c(n1)sc1c(-c3ccccc3)onc12	1.1	1.7
CCC(C)NC(=O)Cn1nc(-c2ccccc2)c2cc(Cl)ccc21 (stereo not drawn)	1	0.77
Cc1cc(C)nc(NS(=O)(=O)c2ccc(NC(=O)c3cccc(Oc4ccccc4)c3)cc2)n1	1.1	0.67
O=C(CCCn1c(=O)c2sccc2n(Cc2ccccc2F)c1=O)NCc1ccccc1	0.93	-1.6
O=C(Nc1nnc(-c2ccncc2)s1)c1ccco1	1	0.22

# Part of the list above in order of molar mass, largest number first:
SMILES,CBX7 inh,CBX7 inh z-score
Cc1ccc(N(CC(=O)Nc2ccc(Br)cc2C)S(=O)(=O)c2c(C)noc2C)cc1,0.97,-0.27
N#Cc1ccc(NC(=O)COCc2cc(-c3ccc(F)cc3)on2)cc1,1.1,0.7
CCc1nnc(NC(=O)COc2cc(C)c(Cl)c(C)c2)s1,1,0.28

# This is a subset; the hit share may differ from the screen's.
